NPYLR7 agonist = mosquito NPYLR7 agonism | HEK293T NPYLR7/Galpha15, GCaMP6s calcium fluorescence | activation, % at 10 µM | 0.15% of 270,000 active; in the data active = activation above about 40%;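 also: 0% = vehicle and 100% = reference agonist at the receptor; some compounds past the cut are filed as inactive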
NPYLR7 agonist max-min = further read-out of NPYLR7 agonist, marked with its call; activation, %; measured here: Max-Min RFU normalised activation; some inactives read as strong as hits;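 span of the calcium signal over five minutes; 0% = vehicle and 100% = native peptide agonist; compound fluorescence can raise it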
An asterisk follows results filed as active; & = joins results of further samples.

Start of the listing, in advance (2 entries):
Below each SMILES: NPYLR7 agonist	NPYLR7 agonist max-min
C=CCNC(=S)NS(=O)(=O)c1ccc(Br)cc1
→ 7	3
CC(C)c1nn(Cc2ccccc2Cl)c(=O)c2c1cnn2C(C)(C)C
→ 6	2

The listing (from the top)
Below each SMILES: NPYLR7 agonist	NPYLR7 agonist max-min
C=CCNC(=S)NS(=O)(=O)c1ccc(Br)cc1
→ 7	3
CC(C)c1nn(Cc2ccccc2Cl)c(=O)c2c1cnn2C(C)(C)C
→ 6	2
CC(C)NC(=O)C(C)Sc1nnnn1-c1ccccc1 (centres undefined)
→ 2	5
CC(C)CN(Cc1cccc(F)c1F)Cc1cccn1Cc1ccc(C(F)(F)F)cc1
→ 6	9
CC(=O)c1ccc(NC(=O)c2ccc(-c3ccccc3)cc2F)cc1
→ 10	7
CCOC(=O)N1CCN(/C=C(\C#N)S(=O)(=O)c2ccccc2)CC1
→ -5	-5
Cc1nccn1-c1ccc(CNC(C)CO)cc1 (centres undefined)
→ 1	0
COC(=O)c1c(C)c(C(=O)CN(CC2CCCO2)S(=O)(=O)c2c(C)cc(C)cc2C)c(C)n1C (centres undefined)
→ -10	-3
O=C(Nc1ccccc1-c1ccccc1CO)C1CC1
→ 2	0
Clc1ccc(-c2nc3c4cnn(Cc5ccccc5)c4ncn3n2)c(Cl)c1
→ -3	-7

2 entries from above, set out differently:
| Molecule | NPYLR7 agonist | NPYLR7 agonist max-min |
| --- | --- | --- |
| C=CCNC(=S)NS(=O)(=O)c1ccc(Br)cc1 | 7 | 3 |
| CC(C)c1nn(Cc2ccccc2Cl)c(=O)c2c1cnn2C(C)(C)C | 6 | 2 |

(further entries)
Below each SMILES: NPYLR7 agonist	NPYLR7 agonist max-min
O=C(Cc1cc(Cl)c2c(c1)OCCO2)N1CC(Oc2ccccc2)C1
→ 3	-1
CC(C)(C)C(=O)C(C#N)=Cc1cc(Br)cs1
→ 0	-3
CCCC(=O)N(c1nc(-c2ccc(OC)cc2)c(C)s1)c1cc(OC)ccc1OC
→ -6	-13
N=C1C(c2nc3ccccc3s2)C(=O)CN1C1CCCCC1 (centres undefined)
→ 0	-2
CC(NC1CC1)c1cccc(C(F)(F)F)c1 (centres undefined)
→ 9	2
Cn1c(=O)[nH]cc(CCN2CCc3[nH]nc(-c4ccc(F)c(F)c4)c3C2)c1=O
→ -5	-8
COCCCn1ccc2nc3ccn(-c4ccncc4)c(=O)c3cc2c1=O
→ 3	6
Cc1ccc(Cn2c(=O)c3c(nc4n(C5CCCC5)c(C)cn34)n(C)c2=O)cc1
→ 8	7
CCN1CCC[C@H]1CNC(=O)c1cnc(-c2cccnc2)nc1
→ 2	1
O=C(NCc1ccccc1F)N1CCN(Cc2ccccc2)CC1
→ 0	2

The listing continues.
Below each SMILES: NPYLR7 agonist	NPYLR7 agonist max-min
COc1cccc(CNC(=O)c2cnc3c(-c4cccc(C(F)(F)F)c4)cnn3c2C)c1
→ 7	-7
CCOC(=O)c1[nH]c(C)c(C(=O)N[C@@H]2C[C@@H](CO)N(C)C2)c1C
→ 4	4
CCc1nnc2c(=O)n(-c3ccc(F)cc3)ccn12
→ 8	-2
CCN(C(C)COC)S(=O)(=O)c1ccc(C)c(C)c1 (centres undefined)
→ 5	3
CC(C)(C)c1noc(COc2ccc(Cl)cc2C(N)=O)n1
→ -7	-5
COCCN(Cc1csc(COc2cc(Cl)ccc2Cl)n1)C(=O)c1ccccc1F
→ 4	9
CC(=O)C(C(C)=O)=P(c1ccccc1)(c1ccccc1)c1ccccc1
→ 6	3
O=S(=O)(c1ccc(Nc2nc(C(F)(F)F)nc3[nH]ncc23)cc1)N1CCOCC1
→ 0	-1
O=C(Nc1ccc(C(F)(F)F)cc1)N1CCN(CCN2C(=O)CSC2c2ccc3c(c2)OCCO3)CC1 (centres undefined)
→ 8	2
Cc1cccc(-n2nc(CC(C)C)c(C(=O)NCC3CCCO3)c2C)c1 (centres undefined)
→ 19	23

More results follow:
Below each SMILES: NPYLR7 agonist	NPYLR7 agonist max-min
Cc1ccccc1C(=O)NC(C)CC1=CCCN(CC(N)=O)C1 (centres undefined)
→ 5	-4
CC1CN(CN2C(=O)C(=O)c3c(Br)cccc32)CC(C)O1 (centres undefined)
→ 5	3
CN(CCOc1ccc(Cl)cc1)C(=O)Nc1ccccc1S(C)=O (centres undefined)
→ 4	1
CCc1nc2ccc(C(=O)NC3CCN(C)CC3)cn2c1N(C)C(=O)Cc1ccccc1
→ 8	25
Cc1ccc(-c2cnn3c(NCCc4ccccc4)cc(C)nc23)cc1
→ 4	2
Cc1sc2nc(CSc3nnnn3C3CCCC3)[nH]c(=O)c2c1C
→ 2	1
Cc1nn(CC(C)C)c(Cl)c1C(=O)NC(C)Cc1ccco1 (centres undefined)
→ -1	11
CCCCCCCC1(C)NC(=O)N(CC(=O)Nc2cc(C)on2)C1=O (centres undefined)
→ 3	1
O=C1OC(c2cccc(Cl)c2)=NC1=Cc1ccco1
→ -1	24
Cc1cc(C)cc(COc2coc(CN3CCN(C(=O)C(F)(F)C(F)(F)C(F)(F)F)CC3)cc2=O)c1
→ 5	4

Later entries:
Below each SMILES: NPYLR7 agonist	NPYLR7 agonist max-min
CC(C)N(C(=O)Cn1nc(-c2ccccc2)c2sc(N3CCOCC3)nc2c1=O)c1ccccc1
→ -2	-8
Cc1nc(SCc2cccc(C(=O)O)c2)nc(N2CCN(c3ccccc3Cl)CC2)c1C
→ -13	-5
COc1cc(OC)cc(C(=O)NCC(=O)N2CCC(c3nc4ccccc4s3)CC2)c1
→ 9	12
CCCC(=O)NC(=S)Nc1ccc2nn(-c3ccccc3)nc2c1
→ 2	-3
c1ccc(-c2cc(Sc3nnc(-c4ccncc4)o3)n3ncnc3n2)cc1
→ 4	9
CN(C)C(=O)C1(CNC(=O)Nc2ccc(F)c(C(F)(F)F)c2)CCCC1
→ 3	0
CC(C)Cc1c(-c2ccccc2)ncn1CCSc1nccn1C
→ -1	-2
CCCCn1c(=O)c2c(nc3n2CCN3c2ccccc2)n(C)c1=O
→ 13	6
COc1ccc(-c2nc3n(n2)C(c2ccccc2F)C(C(=O)Nc2cccnc2)=C(C)N3)cc1OC (centres undefined)
→ 6	4
O=C(c1cccc(F)c1)N(Cc1nccn1Cc1cccc(C(F)(F)F)c1)C1CC1
→ 12	20

More structures follow.
Below each SMILES: NPYLR7 agonist	NPYLR7 agonist max-min
O=C(CN1CN(c2ccccc2)C2(CCN(C(=O)c3ccc(Cl)c(Cl)c3)CC2)C1=O)NCc1ccc2c(c1)OCO2
→ 33	36
COc1cccc(-c2cc(-c3ccc(C(=O)NCc4cccc5ccccc45)cc3)[nH]n2)c1
→ 4	1
CC(C)CN(CC(=O)N(CCc1c[nH]c2ccccc12)Cc1ccc(C(F)(F)F)cc1)C(=O)c1cccc(Br)c1
→ 8	-1
Cn1nc(C(=O)NCc2cn3c(n2)SCC3)c2c1CCCC2
→ 13	6
C=CCN(CC(=O)N(Cc1cccn1C)CC(C)C)C(=O)c1cccc(OC)c1
→ 8	10
Cc1cc(NC(=O)NCCCSc2nncn2C)no1
→ 12	9
Cc1ccc(-c2nc(N3CCC(O)(c4ccc(Cl)cc4)CC3)c3ccccc3n2)cc1
→ 1	0
C/C(=C/C(=O)N1CCS(=O)CC1)c1cccc(C(F)(F)F)c1
→ 5	2
COCc1cc(C)nc(NN=Cc2cc([N+](=O)[O-])cc([N+](=O)[O-])c2O)c1C#N
→ -5	-12
O=[N+]([O-])c1cccc(/C=C/c2ncc3ccccn23)c1
→ -3	-3

Additional records follow:
Below each SMILES: NPYLR7 agonist	NPYLR7 agonist max-min
O=C(Nc1ccc(OCC(F)(F)F)cc1)c1cnccn1
→ -2	-2
Nc1cc(-c2ccc(Cl)c(Cl)c2)nn1-c1ccc(C(=O)NCCc2ccccc2)cc1
→ 14	8
CCc1nc2ccc(C(=O)NCCOc3ccc(OC)cc3)cn2c1N(C)C(=O)C1CCCCC1
→ -9	-13
Cc1nc(COc2ccc(C=CC(=O)Nc3nccs3)cc2)cs1
→ 4	10
CCC(CCO)CNc1nn2c(=O)ccnc2s1 (centres undefined)
→ 1	-2
c1nc2c([nH]1)CCNC2c1ccc(-c2ccc3c(c2)OCCO3)cc1 (centres undefined)
→ -1	-2
Cc1cc(C)c2nc(N(CCn3cccn3)C(=O)c3cc(C)on3)sc2c1
→ -15	-20
CCOc1nc(-c2ccccc2F)n(-c2ccc(NC(=O)/C=C/c3ccccc3)cc2)n1
→ 4	3
CCc1cccc(C)c1NC(=O)Cn1nc(-c2ccco2)c2sc(N3CCCCC3)nc2c1=O
→ 0	-7
O=C(c1ccc2ccccc2c1)N1CCN(c2ccc(-n3cccn3)nn2)CC1
→ -1	-6

Other structures follow.
Below each SMILES: NPYLR7 agonist	NPYLR7 agonist max-min
CCOc1ccc(CN(C)Cn2nc(-c3ccco3)n(C)c2=S)cc1
→ 1	9
O=C(O)CCn1c(/C=C/c2cccc(NC(=O)C(F)(F)F)c2)nc2ccccc2c1=O
→ -9	-10
CN(C)C(=O)CSc1nc2scc(-c3ccccc3)c2c(=O)[nH]1
→ 8	2
Cc1cc(C)c2ccc(O)cc2n1
→ 4	1
O=C(NCC1CCCN(C(=O)CCn2cncn2)C1)c1ccc(-c2ccccc2)cc1 (centres undefined)
→ 10&5	3&1
COc1ccc(-c2nnc(SCC(=O)N3CCCCC3)o2)cc1OC
→ 7	0
CN1CC(c2nc3ccccc3n2Cc2ccc(Br)cc2)CC1=O (centres undefined)
→ 2	5
O=C(Nc1ccc(-c2nc3ccccc3c(=O)o2)cc1)c1ccc(Cl)cc1
→ -1	-7
C=CCOc1cccnc1N
→ 3	1
COc1cc(C)ccc1OCc1nc(C(=O)N(C)CC2Cc3ccccc3O2)co1 (centres undefined)
→ 3	0

Profiles as entered above. Screens in order: NPYLR7 agonist, NPYLR7 agonist max-min
CN(C)C(=O)CSc1nc2scc(-c3ccccc3)c2c(=O)[nH]1 in the list: 8, 2
COc1ccc(-c2nnc(SCC(=O)N3CCCCC3)o2)cc1OC in the list: 7, 0
O=C(O)CCn1c(/C=C/c2cccc(NC(=O)C(F)(F)F)c2)nc2ccccc2c1=O in the list: -9, -10
Cc1cc(C)c2ccc(O)cc2n1 in the list: 4, 1
O=C(NCC1CCCN(C(=O)CCn2cncn2)C1)c1ccc(-c2ccccc2)cc1 (centres undefined) in the list: 10&5, 3&1

Next part:
Below each SMILES: NPYLR7 agonist	NPYLR7 agonist max-min
C=CCOCC(O)CN(Cc1ccco1)Cc1c(C)nn(-c2ccccc2)c1Oc1ccc(C)cc1 (centres undefined)
→ -3	1
COc1ccc(N2CCN(C(=O)C3CCCCC3C(=O)Nc3cccc(Oc4ccccc4)c3)CC2)cc1 (centres undefined)
→ -7	-15
N#CC1C(=N)C(C#N)(C#N)C(c2cccnc2)C2CSCC=C12 (centres undefined)
→ 11	4
Cn1cncc1-c1cc2cnc(Nc3cccc(Oc4ccccc4)c3)cc2[nH]1
→ 6	7
CCOC(=O)C1=C(O)/C(=C/c2ccccc2OCC#N)SC1=NC(=O)c1ccccc1Cl
→ -2	-3
Cc1ccc(CSc2nnc3n2CCN3c2ccccc2)cc1
→ -7	-7
CCn1c(N)c(C(=O)NCC2CCCO2)sc1=S (centres undefined)
→ 17	18
COc1ccc(C(=O)C2=C3SC=C(c4ccc(Br)cc4)N3CC2)cc1OC
→ -6	-12
Cc1c(C(=O)NCc2cccc([N+](=O)[O-])c2)sc(=O)n1Cc1ccccc1
→ 18	12
COc1ccc(CN2CCC2(C)C(=O)Nc2ccccc2Cc2ccccc2)c2ccccc12 (centres undefined)
→ 5	2

Later entries:
Below each SMILES: NPYLR7 agonist	NPYLR7 agonist max-min
CC(C(=O)NN1CCOCC1)N(C)Cc1ccccc1 (centres undefined)
→ -1	-4
CCNc1ncc2nc(C(=O)O)c(=O)[nH]c2n1
→ 18	10
CC(=O)NCCc1n[nH]c(Cc2ccccc2)n1
→ -4	-9
CN1CCCC2(CCN(C(=O)c3ccc(-c4nnn(C)n4)cc3)C2)C1=O (centres undefined)
→ 7	6

Screens: PubChem, Fisher Drug Discovery Resource Center

Not all compounds are listed; count on the stated rates, not on these rows.
